# Source: PubChem BioAssay
# TPT1 inhibitor: C. albicans TPT1 enzyme inhibition; recombinant caTPT1, FP RNA substrate dephosphorylation; AID 1962; 300,000 tested, 0.81% active; inhibition, % at 5 µM;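 active = inhibition above the mean of all tested compounds plus 3 SD, set per screening campaign, cut at about 24% in these data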;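 note: plate controls were DMSO alone for no effect and ferristatin control at 100 nM for full effect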
# procasp7 counter: counter-screen: procaspase-7 (human) activation; AID 463210; 330,000 tested, 0.093% active; recombinant procaspase-7, Ac-DEVD-pNA absorbance 405 nm; D23A/D198A/D206A triple mutant, cannot self-cleave; scale: DMSO 0, 5 µM enzyme 100; activation, % at 8.5 µM; P55210;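 active = percent activation above the screen-wide mean plus 3 SD, cut at about 25% in these data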
#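 System: Procaspase-7 triple mutant (PC-7 D3A); measure: % activation from two-timepoint absorbance difference, scaled to controls; times: 1 h compound preincubation, 2 h substrate cleavage, 25 °C; also added: Ac-DEVD-pNA substrate, 400 µM as added; measured by: Epi-absorbance of released pNA at 405 nm, two timepoints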
# procasp3 activ: activates human procaspase-3 | recombinant procaspase-3 D3A, Ac-DEVD-pNA absorbance 405 nm | activation, % at 8.5 µM | 330,000 tested, 0.11% active | AID 463141;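 active = activation above the mean of all tested compounds plus 3 SD, cut at about 21% in these data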;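 note: 0% = DMSO alone and 100% = DMSO wells spiked with extra 5 µM PC-3 D3A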
# Target sequence (P42574 whole entry D9A/D28A/D175A): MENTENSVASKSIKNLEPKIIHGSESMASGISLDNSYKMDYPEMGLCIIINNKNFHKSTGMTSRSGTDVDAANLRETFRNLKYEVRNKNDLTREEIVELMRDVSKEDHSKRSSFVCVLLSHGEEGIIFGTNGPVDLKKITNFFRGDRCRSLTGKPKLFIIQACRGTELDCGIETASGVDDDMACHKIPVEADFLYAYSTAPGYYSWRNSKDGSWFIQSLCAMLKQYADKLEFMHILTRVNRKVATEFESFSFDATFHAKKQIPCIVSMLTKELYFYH
#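 Test system: Procaspase-3 D3A mutant, all three cleavage aspartates alanine | Dosing: Single dose, 8.5 µM nominal compound, 0.8% DMSO | Schedule: 1 h preincubation, 2 h reaction | Technique: 405 nm absorbance of p-nitroaniline, reads at 0 and 120 min | Repeats: One well per compound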
# Fh CTSL1 inh: counter-screen for PFM18AAP inhibitors: inhibitors of F. hepatica cathepsin L1 | recombinant F. hepatica cathepsin L1, Z-Leu-Arg-MCA fluorescence | 300,000 tested, 0.49% active | inhibition, % at 5.96 µM;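 active = inhibition above the mean of all tested compounds plus 3 SD, set per screening campaign, cut at about 17% in these data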;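 note: 0% = plate median of test compound wells and 100% = 1 µM Z-Phe-Ala-diazomethylketone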
# PP1 inh: PP1-alpha (human) inhibition in PP5 counter-screen; AID 2235; purified PP1alpha, OMFP fluorescence; inhibition, % at 6.7 µM; 320,000 tested, 0.9% active; P62136;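 active = inhibition above the mean inhibition of all tested compounds plus 3 SD, computed separately for each screening campaign, cut at about 15% in these data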
# Target sequence (P62136 whole entry, looked up): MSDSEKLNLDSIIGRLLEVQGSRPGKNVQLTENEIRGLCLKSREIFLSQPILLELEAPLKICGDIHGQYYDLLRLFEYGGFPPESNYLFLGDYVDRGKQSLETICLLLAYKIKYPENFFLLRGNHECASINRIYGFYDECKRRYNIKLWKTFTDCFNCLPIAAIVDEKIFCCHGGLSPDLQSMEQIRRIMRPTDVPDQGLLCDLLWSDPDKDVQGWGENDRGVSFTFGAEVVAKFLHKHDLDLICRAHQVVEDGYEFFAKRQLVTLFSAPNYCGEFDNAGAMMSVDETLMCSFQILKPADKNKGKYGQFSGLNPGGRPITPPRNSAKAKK
# PP5 inh: blocks human protein phosphatase 5 activity; inhibition, % at 6.7 µM; P53041; 320,000 tested, 0.18% active; purified PP5c, OMFP substrate fluorescence;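 active = inhibition above the campaign's mean inhibition across all tested compounds plus 3 SD, cut at about 9.5% in these data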;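 note: 0% = DMSO only and 100% = 100 µM cantharidin control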
# HCV core dimer: blocks dimerization of HCV core protein. 300,000 tested, 0.33% active. TR-FRET GST/Flag-core106 dimerization, 1536-well. inhibition, % at 5 µM. AID 1899;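 active = inhibition above the mean of all tested compounds plus 3 SD, set per screening campaign, cut at about 45% in these data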
#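 Assay system – GST-tagged and Flag-tagged HCV core protein residues 1-106 · Quantity – core106 proteins, GST 13.5 nM and Flag 17 nM · Benchmarks – unlabelled core106 and no-GST-core106 wells · Read-out basis – percent inhibition of core106 dimerization signal · Detection – time-resolved FRET, ex 340 nm, em 617 and 671 nm · Schedule – 4 h at 22.5 °C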
# * marks the source's active call; other numbers are inactive results; · = no result given; & = joins results of further samples; ! = repeats disagree. The list is partial; rates above refer to the full screens.
# Codes: A = TPT1 inhibitor; B = procasp7 counter; C = procasp3 activ; D = Fh CTSL1 inh; E = PP1 inh; F = PP5 inh; G = HCV core dimer
Structure: O=C1NCN(c2ccccc2)C12CCN(CCCC(c1ccc(F)cc1)c1ccc(F)cc1)CC2
  A: -3.6; B: -9.7; C: -11.7; D: 3.2; E: 18.9*; F: 4.4; G: -6.9

Structure: c1ccc2c(c1)[nH]c1ccccc12
  A: 2.6; B: -3.4; C: 11.1; D: -5.3; E: -4.2; F: 6.0; G: -6.0

Structure: CCS(=O)(=O)c1ccc(O)c(NC(=O)Nc2cccc3ccccc23)c1
  A: -1.1; B: 7.1; C: 6.7; D: -0.9; E: -1.7; F: 0.3; G: -4.2

Structure: CCOC(=O)[C@@H](CCc1ccccc1)N[C@H](C)C(=O)N1[C@H](C(=O)O)C[C@@H]2CCC[C@@H]21
  A: 0.9; B: -4.5; C: 4.4; D: 4.4; E: -1.7; F: -1.0; G: 9.8

Structure: O=C(Nc1cc(S(=O)(=O)N2CCCCC2)ccc1O)c1ccccc1NS(=O)(=O)c1ccc(F)cc1
  A: -1.9; B: 3.0; C: 0.1; D: 1.5; E: 6.8; F: 6.7; G: 21.9

Structure: Cc1cccc(OCC2=N/C(=C\N(C)C)C(=O)O2)c1
  A: 1.5; B: 7.3; C: 20.9; D: 2.5; E: -3.0; F: 1.2; G: 8.0

Structure: COc1cc2c(cc1OC)-c1cc(N3CCCCCC3)nc(=O)n1CC2
  A: 2.8; B: 7.9; C: -6.3; D: -2.7; E: 0.4; F: 1.2; G: -4.6

Structure: CCC(C)(CN(C)C)OC(=O)c1ccccc1 (configuration not stated)
  A: -2.0; B: -1.9; C: 5.9; D: -2.4; E: 4.8; F: 0.9; G: -8.0

Structure: CCc1cc(=O)oc2c3c(cc(OCC(=O)NCc4ccccn4)c12)OC(C)(C)CC3
  A: 4.2; B: 2.9; C: 2.7; D: -0.9; E: -3.2; F: 1.3; G: -1.4

Structure: CNCCC(Oc1ccccc1OC)c1ccccc1 (configuration not stated)
  A: -0.5; B: 4.5; C: 0.3; D: -0.3; E: 1.2; F: 0.8; G: -2.2

# The list continues.
# Codes: A = TPT1 inhibitor; B = procasp7 counter; C = procasp3 activ; D = Fh CTSL1 inh; E = PP1 inh; F = PP5 inh; G = HCV core dimer
Structure: O=C(O)C(O)Cc1c[nH]c2ccccc12 (configuration not stated)
  A: -2.0; B: -10.3; C: -0.9; D: -2.6; E: 1.0; F: -3.7; G: -2.2

Structure: O=C(OCc1ccccc1)c1ccccc1
  A: -2.1; B: 2.9; C: 4.7; D: -1.7; E: -5.8; F: 1.7; G: 0.7

Structure: Cc1c(C)c2c(OCC(=O)NCc3ccncc3)cc3c(c2oc1=O)CCC(C)(C)O3
  A: 0.2; B: 5.7; C: 3.1; D: -2.2; E: -5.7; F: -0.1; G: -0.2

Structure: CN(C)Cc1cc(C(C)(C)C)c(O)c(C(C)(C)C)c1
  A: -0.6; B: -2.0; C: -0.1; D: -3.2; E: -3.3; F: 4.5; G: -5.5

Structure: CC(COc1ccccc1)N(CCCl)Cc1ccccc1 (configuration not stated)
  A: -2.0; B: 3.7; C: -0.3; D: -0.3; E: -0.6; F: 2.7; G: -1.5

Structure: CC(=O)[C@@]1(O)CC[C@H]2[C@@H]3CCC4=CC(=O)CC[C@]4(C)[C@H]3CC[C@@]21C
  A: 0.2; B: -0.7; C: 4.8; D: 0.6; E: -1.1; F: 1.6; G: 3.6

Structure: CC(=O)C(C)Oc1ccc2c3c(c(=O)oc2c1C)CCCC3 (configuration not stated)
  A: -5.8; B: 1.9; C: 3.8; D: 1.9; E: 0.6; F: 2.4; G: 5.5

Structure: CCCc1c(OCCCCc2nn[nH]n2)ccc(C(C)=O)c1O
  A: 0.6; B: 11.8; C: 3.9; D: 5.5; E: 2.4; F: -0.9; G: 14.6

Structure: CCC(CC)NC(=O)COC(=O)c1ccc(NS(=O)(=O)c2ccc3c(c2)OCCO3)cc1
  A: -3.1; B: -1.5; C: 3.5; D: -7.7; E: -0.2; F: 2.5; G: -2.7

Structure: CCC(NC(=O)COc1cc2c(c3oc(=O)c(C)c(C)c13)CCC(C)(C)O2)C(=O)O (configuration not stated)
  A: -1.0; B: 7.2; C: 4.0; D: 2.6; E: 4.5; F: 2.6; G: 0.0

# Continuation.
# Codes: A = TPT1 inhibitor; B = procasp7 counter; C = procasp3 activ; D = Fh CTSL1 inh; E = PP1 inh; F = PP5 inh; G = HCV core dimer
Structure: C[C@@H]1C[C@H]2[C@@H]3C[C@H](F)C4=CC(=O)C=C[C@]4(C)[C@@]3(F)[C@@H](O)C[C@]2(C)[C@@]1(O)C(=O)CO
  A: -3.0; B: -12.9; C: 0.3; D: 6.5; E: -3.0; F: 1.0; G: 6.7

Structure: CCN(CC)CCOc1ccc(/C(=C(/Cl)c2ccccc2)c2ccccc2)cc1
  A: 1.1&1.4; B: 13.9&-4.1; C: 4.2&3.6; D: -1.1&4.9; E: 19.3*!; F: 4.4&2.5; G: -15.7&-20.9

Structure: COc1cc2c(cc1OC)-c1cc(NC3CCCCCC3)nc(=O)n1CC2
  A: -1.8; B: 4.1; C: -8.5; D: -2.6; E: 0.3; F: -0.1; G: 3.5

Structure: Oc1ccc(O)cc1
  A: -1.0; B: -8.0; C: -5.6; D: -0.2; E: 1.6; F: 0.9; G: -0.8

Structure: COc1ccccc1/C=C/c1nc2ccccc2c(=O)o1
  A: -0.3; B: 15.2; C: -5.0; D: 2.2; E: -0.7; F: 1.4; G: 5.3

Structure: CCCCOc1ccc(C(=O)OCC(=O)N2CCCCCC2)cc1
  A: ·; B: 4.3; C: -2.7; D: ·; E: ·; F: ·; G: ·

Structure: Nc1cnn(C2OC(CO)C(O)C2O)c(=O)n1 (configuration not stated)
  A: -1.0; B: 4.2; C: 5.8; D: -3.1; E: -1.1; F: -2.7; G: -0.5

Structure: COc1ccccc1C(=O)O/N=C(\c1ccccc1)c1ccncc1
  A: 0.3; B: 4.7; C: -0.5; D: -5.7; E: -2.2; F: -2.4; G: -1.0

Structure: CC(C)c1ccc(NC(=O)COC(=O)C2=COCCO2)cc1
  A: -2.4; B: 7.5; C: -3.0; D: -1.6; E: -0.6; F: 1.4; G: -5.0

Structure: O=S(=O)(O)c1cc(O)ccc1O
  A: -4.3; B: 3.9; C: -4.9; D: -1.0; E: 1.5; F: 0.2; G: 3.1

# Other entries follow:
# Codes: A = TPT1 inhibitor; B = procasp7 counter; C = procasp3 activ; D = Fh CTSL1 inh; E = PP1 inh; F = PP5 inh; G = HCV core dimer
Structure: CN/C(=C\[N+](=O)[O-])NCCSCc1csc(CN(C)C)n1
  A: -1.4; B: 0.9; C: 2.2; D: 1.7; E: -0.8; F: 1.4; G: -3.9

Structure: CCOC(=O)[C@H](CCc1ccccc1)N[C@@H](C)C(=O)N1C(C(=O)O)C[C@@H]2CCC[C@@H]21 (some centres not stated)
  A: 0.8; B: -1.1; C: -7.8; D: -4.3; E: 3.0; F: -0.4; G: -1.4

Structure: O=C(COC(=O)c1cc(S(=O)(=O)N2CCCC2)ccc1O)Nc1ccc(SC(F)F)cc1
  A: ·; B: -0.7; C: -7.0; D: ·; E: 5.0; F: 1.3; G: ·

Structure: CN(C)CCOC(=O)COc1ccc(Cl)cc1
  A: 0.5; B: -3.4; C: 7.3; D: 0.8; E: -2.5; F: -1.9; G: 7.7

Structure: Clc1ccccc1-c1nc(-c2ccncc2)no1
  A: -0.2&-1.4; B: -10.5&0.8; C: -5.8&2.6; D: -0.5&2.6; E: -1.7&-3.7; F: 2.6&0.0; G: -6.1&1.8

Structure: Cc1cc2c(=O)oc(-c3ccc(Br)cc3)nc2s1
  A: 0.2; B: 4.6; C: 3.8; D: 1.1; E: -2.2; F: 1.8; G: 22.3
